# HNF4A DNA FP: change in binding of human HNF4 alpha to DNA | P41235 | AID 1224865 | HNF4a-FITC DNA binding, fluorescence polarization, 1 h | hit rate 0.3% among 360,000 | activity change, % at 10 µM; in the data active = activity change above about 30%, passing the limit was not always enough;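 also: controls were the assay level and a saturating level of protein; the project sought stronger binding though the title names inhibitors; some compounds called inactive have numbers as strong as hits; positive values seem to mean higher polarization but the record does not say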
# FGF22 binding: binders of recombinant human FGF22 by thermal shift; calls only at 9.99 µM; Q9HCT0; hit rate 1.5% among 340,000; SYPRO orange fluorescence; percent of sucrose octasulfate shift, DMSO zero;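 active = melting point raised past a set limit in the mean and every replicate; three in four hits are not shown here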
# LANA-H2B inh: blocks KSHV LANA binding to histone H2A/H2B; Q9QR71; AID 2629; inhibition, % (test concentration not listed); hit rate 0.6% among 320,000; cell-free LANA-H2A/H2B peptide, fluorescence polarization; in the data active = inhibition mostly above about 10%, no sharp cut-off; inactive = mostly below about 6.7%;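 also: stock transfer was 7.5 nL into about 10 µL; 0% = median of vehicle wells and 100% = median of positive control wells; one replicate is shown; the record names a cut of 25% in any replicate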
# ALR inh: human ALR oxidase inhibition via reduced H2O2. P55789. purified ALR, DTT oxidation, H2O2 HRP-luminol luminescence. inhibition, % (no concentration beside the values). hit rate 3.8% among 290,000;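 active = mean and each replicate at 75% or more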;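 also: stock transfer was 7.5 nL into about 7.5 µL; 0% = neutral wells and 100% = wells with inactivated enzyme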
# Target sequence (P55789 whole entry, looked up): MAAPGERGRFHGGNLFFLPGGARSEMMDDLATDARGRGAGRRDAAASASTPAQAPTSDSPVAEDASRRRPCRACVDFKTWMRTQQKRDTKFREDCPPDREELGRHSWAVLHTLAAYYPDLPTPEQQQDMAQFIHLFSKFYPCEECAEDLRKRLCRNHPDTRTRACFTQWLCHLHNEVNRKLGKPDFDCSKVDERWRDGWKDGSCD
# B2AR ag: human beta-2 adrenergic receptor agonism by FAP. Am2.2-beta2AR cells, FAP receptor internalization, flow cytometry; reference of the scale not given here. AID 504454. response, % (concentration not given with the values). P07550. hit rate 0.43% among 340,000;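 active = response above a set limit, near 3 SD of response in nonfluorescent compounds, cut at about 42% in these data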;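 also: stock transfer was 100 nL into about 11 µL; a reference agonist was the positive control; negative values mostly stem from fluorescent compounds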
# Target sequence (P07550 whole entry, looked up): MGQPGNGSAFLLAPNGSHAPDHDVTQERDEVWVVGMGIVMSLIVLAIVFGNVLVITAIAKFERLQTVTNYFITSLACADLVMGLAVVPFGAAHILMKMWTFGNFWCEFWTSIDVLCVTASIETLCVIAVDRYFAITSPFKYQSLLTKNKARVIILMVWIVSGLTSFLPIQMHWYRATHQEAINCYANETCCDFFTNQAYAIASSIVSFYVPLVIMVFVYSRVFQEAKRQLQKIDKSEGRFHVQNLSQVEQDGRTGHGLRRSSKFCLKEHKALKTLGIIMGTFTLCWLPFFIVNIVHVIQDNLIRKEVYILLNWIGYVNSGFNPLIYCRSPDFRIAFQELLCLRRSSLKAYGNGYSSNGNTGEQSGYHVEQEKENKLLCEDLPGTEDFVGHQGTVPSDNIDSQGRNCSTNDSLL
# Ecoli growth: inhibitors of Escherichia coli growth | hit rate 0.21% among 330,000 | OD600 absorbance (no concentration beside the values) | OD600, 23 h; active compounds read low | AID 1053175;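 active = OD600 absorbance below the run mean of sample wells minus 3.6 SD, in any replicate, cut at about 0.56 in these data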;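 also: stock transfer was 300 nL into about 60 µL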
# UCH37 DUB inh: inhibitors of human deubiquitinating enzyme UCH37; Q9Y5K5; purified proteasome/UCH37, Ub-AMC cleavage fluorescence; inhibition, % (test concentration not listed); hit rate 0.33% among 330,000;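 active = mean of two replicates above 20%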;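 also: 0% = compound-free wells with enzyme and 100% = wells lacking proteasome; stock transfer was 100 nL into about 20 µL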
# Target sequence (Q9Y5K5 whole entry, looked up): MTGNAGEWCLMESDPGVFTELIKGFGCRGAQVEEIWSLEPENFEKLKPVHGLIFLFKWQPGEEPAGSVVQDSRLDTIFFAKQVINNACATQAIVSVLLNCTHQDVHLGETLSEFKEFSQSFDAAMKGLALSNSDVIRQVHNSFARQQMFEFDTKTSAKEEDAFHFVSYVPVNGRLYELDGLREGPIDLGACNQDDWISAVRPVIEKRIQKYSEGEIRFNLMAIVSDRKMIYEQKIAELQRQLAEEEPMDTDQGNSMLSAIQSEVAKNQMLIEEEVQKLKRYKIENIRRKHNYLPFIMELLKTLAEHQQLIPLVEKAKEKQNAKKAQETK
#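 Material: Human UCH37 enzyme supplied as purified proteasome complex | Schedule: 30 min preincubation with enzyme, 25 min cleavage at room temperature | Detection: AMC fluorescence 355/460 nm | Measure: % inhibition of Ub-AMC cleavage fluorescence | Controls: Wells without proteasome as full block, compound-free enzyme plus substrate as uninhibited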
# * = called active by the depositor; i = inactive; x = no result given.
# Abbreviations: A = HNF4A DNA FP; B = FGF22 binding; C = LANA-H2B inh; D = ALR inh; E = B2AR ag; F = Ecoli growth; G = UCH37 DUB inh
Cc1ccc(C(=O)CCC(=O)Nc2cccc(C(F)(F)F)c2)cc1C
  A: 7.0	B: x	C: 1.9	D: -12.9	E: 0.8	F: 0.7	G: 1.6
O=C1NCCN1CCNS(=O)(=O)c1ccc(F)c(Cl)c1
  A: -1.8	B: i	C: 2.5	D: 2.9	E: -5.4	F: 0.636	G: 0.0
CCC(=O)N1CCN(c2ccc(NC(=O)c3c(F)c(F)c(OC)c(F)c3F)cc2)CC1
  A: 1.0	B: x	C: -3.8	D: -3.7	E: 4.1	F: 0.734	G: 2.3
N/C(=N\OC(=O)CC1CCCCC1)c1ccc(Br)cc1
  A: 3.7	B: i	C: -2.9	D: 4.0	E: -4.3	F: 0.692	G: 0.4
N/C(=N\OC(=O)Cc1ccccc1[N+](=O)[O-])c1ccccn1
  A: -2.2	B: i	C: 0.0	D: -15.2	E: 0.0	F: x	G: x
NS(=O)(=O)c1ccc(CCNC(=O)/C=C/c2cccc([N+](=O)[O-])c2)cc1
  A: -2.3	B: x	C: 1.1	D: -9.6	E: -3.3	F: 0.662	G: 0.4
O=C1c2ccccc2C(=O)N1CCc1c(-c2[nH]c3ccccc3c2CCN2C(=O)c3ccccc3C2=O)[nH]c2ccccc12
  A: 1.4	B: i	C: x	D: x	E: -2.3	F: x	G: x
CCCN(CC(=O)Nc1ccccc1C)C(=O)Cc1c(C)nc2ccccc2c1C
  A: -3.1	B: i	C: 139.7*	D: x	E: -9.8	F: 0.675	G: -4.0
CCOC(=O)c1sc2ccccc2c1OC(=O)c1ccccc1OC
  A: -1.7	B: i	C: -5.2	D: -3.8	E: 6.0	F: 0.652	G: 0.8
CCC1SC(CC)C(=O)N(CC(=O)NCc2ccc(F)cc2)C1=O (stereo unspecified)
  A: -5.4	B: i	C: -0.8	D: -2.5	E: 3.6	F: 0.69	G: 3.2
Cc1ccccc1-c1nn(-c2ccc(F)cc2F)cc1CNCCCN(C)C
  A: 5.1	B: i	C: -4.4	D: -66.6	E: 17.6	F: 0.665	G: 0.1
CCOC(=O)C1=C(COc2ccccc2)NC(=O)NC1c1ccc(Cl)cc1 (stereo unspecified)
  A: 7.3	B: i	C: 1.6	D: -9.5	E: -12.6	F: 0.742	G: 0.7
Cc1ccc(C(=O)N2CCC(C(=O)NCc3cccnc3)CC2)cc1
  A: 3.4	B: x	C: 2.4	D: -9.6	E: -4.0	F: 0.68	G: 0.7
COc1ccc(-n2c(-c3cccc(C)c3[N+](=O)[O-])n[nH]c2=S)cc1
  A: 0.7	B: x	C: 3.2	D: 56.7	E: 2.3	F: 0.66	G: -3.2
NNC(=O)COc1ncn(-c2ccccc2)n1
  A: 1.0	B: x	C: 1.9	D: 40.9	E: -1.0	F: 0.722	G: -1.4
Cc1ccccc1OCC(=O)N/N=C/c1ccccn1
  A: 0.4	B: i	C: 26.7*	D: -12.6	E: 2.0	F: x	G: x
CC1(C)SC(=S)N(NC(=O)Nc2cccc3ccccc23)C1N(O)C(=O)Nc1ccccc1 (stereo unspecified)
  A: -3.6	B: i	C: -0.4	D: -3.6	E: 1.4	F: 0.671	G: 0.7
O/N=C/c1ccnc(SCc2ccc(Cl)cc2)n1
  A: 1.5	B: i	C: 0.3	D: 1.6	E: -3.2	F: x	G: x
CC(=O)c1ccc(S(=O)(=O)N2CCN(C(=O)c3ccc(COc4ccccc4)o3)CC2)cc1
  A: 7.0	B: i	C: x	D: x	E: -9.1	F: 0.67	G: 5.1
CCOc1ccc(NC(=S)NC(=O)c2c(Cl)cnn2CC)c([N+](=O)[O-])c1
  A: 0.2	B: x	C: -2.1	D: -19.5	E: -8.1	F: 0.647	G: 3.9
CC#CCCC(=O)N1C=Cc2ccccc2C1C#N (stereo unspecified)
  A: -0.7	B: x	C: 0.1	D: -8.7	E: -9.1	F: 0.756	G: -0.5
CCCCc1ccc(NC(=S)Nc2ccc(Cl)c(S(=O)(=O)N(C)C)c2)cc1
  A: 1.0	B: x	C: -0.8	D: x	E: 2.1	F: 0.63	G: 2.8
CC(C)Cc1csc(NC(=O)c2ccc(F)cc2)c1C(=O)O
  A: 1.4	B: x	C: -2.5	D: 57.9	E: 11.3	F: 0.693	G: 0.7
O=C(COc1cccc2cccnc12)Nc1ccccc1N1CCOCC1
  A: 0.1	B: x	C: -0.5	D: 61.9	E: 10.1	F: 0.707	G: 3.8
O=C(NC(NNc1ccc([N+](=O)[O-])cc1)(C(F)(F)F)C(F)(F)F)c1ccccc1Cl
  A: 0.0	B: x	C: 2.9	D: 74.3	E: -7.9	F: 0.63	G: 1.4
Nc1ccc(-c2cc(N)n(-c3ccccc3)n2)cc1
  A: 0.7	B: x	C: -3.2	D: 93.2*	E: 20.7	F: 0.761	G: -1.3
COc1ccccc1NC(=O)N1CCN(S(C)(=O)=O)CC1
  A: 1.8	B: i	C: -3.5	D: 8.1	E: -4.8	F: 0.719	G: 2.3
CCN(C(=O)CSc1nnc(-c2ccc3c(c2)OCO3)o1)C1CCS(=O)(=O)C1 (stereo unspecified)
  A: -0.9	B: i	C: 1.9	D: x	E: 0.4	F: 0.632	G: 2.9
Cc1nn(Cc2ccccc2)c(C)c1C(=O)N1CCN(CC(=O)Nc2ccc(F)cc2)CC1
  A: 3.7	B: i	C: 5.0	D: 0.9	E: -4.4	F: 0.711	G: 1.2
CCCCCCCCCCCCN1[C@@H](CC(C)=O)c2cc(C(F)(F)F)ccc2S1(=O)=O
  A: 2.9	B: x	C: -8.1	D: -4.4	E: -4.4	F: x	G: 0.7
Cc1noc(C)c1C(c1ccccc1)c1ccccc1
  A: 1.0	B: i	C: -1.0	D: -0.2	E: -3.8	F: 0.699	G: 2.9
O=[N+]([O-])c1ccc(N2CCOCC2)c(S(=O)(=O)N2CCOCC2)c1
  A: -0.2	B: i	C: 0.4	D: x	E: 5.0	F: 0.714	G: 4.5
CC(=O)c1ccc(N=c2scc(C)n2C(C)C)cc1
  A: 3.4	B: i	C: 1.2	D: x	E: 1.3	F: 0.692	G: 2.9
Cc1cc(C=O)c(O)cc1O
  A: -1.8	B: i	C: 3.9	D: 23.9	E: -4.8	F: x	G: x
Cc1ccc(C(=O)N2CCOCC2)c(F)c1F
  A: -3.4	B: i	C: -2.0	D: x	E: 2.1	F: 0.676	G: -1.1
O=c1[nH]c2cccnc2n(CCNc2ncc(C(F)(F)F)cc2Cl)c1=O
  A: 4.9	B: i	C: 1.0	D: -6.6	E: -6.8	F: 0.647	G: 2.7
CCOC(=O)C(CC)Sc1ncnc2nc[nH]c12 (stereo unspecified)
  A: -0.9	B: x	C: -0.1	D: -6.4	E: 4.8	F: 0.743	G: 1.9
O=C(CSc1nc2nn(-c3ccccc3)c(=O)c-2c2n1CCCCC2)Nc1cccc(F)c1
  A: -2.5	B: i	C: 3.9	D: 1.4	E: 6.4	F: 0.689	G: 0.6
Cc1ccccc1NC(=O)C(=O)NCCCN1CCOCC1
  A: -5.4	B: i	C: -0.4	D: -10.5	E: 7.8	F: 0.705	G: 4.6
CC(OC(=O)c1cccc(-n2cnnn2)c1)c1nc2ccccc2c(=O)[nH]1 (stereo unspecified)
  A: -2.6	B: i	C: 1.6	D: 0.6	E: -1.1	F: 0.67	G: 3.0
O=C1c2ccccc2C(=O)N1c1cccnc1
  A: -0.6	B: x	C: 0.8	D: -1.0	E: -3.4	F: 0.686	G: 1.1
CC(Sc1nnc(N)s1)c1ccccc1Cl (stereo unspecified)
  A: 2.1	B: i	C: -0.6	D: 6.3	E: -6.1	F: 0.714	G: 2.0
O=C(Nc1cccc(/C=C/c2ccccn2)c1)c1cc(Cl)ccn1
  A: 6.2	B: i	C: -4.4	D: -16.9	E: -6.5	F: 0.694	G: -30.0
CN(CC1CCN(CCc2cccc(C(F)(F)F)c2)CC1)C(=O)c1ccc(F)cc1
  A: 0.9	B: i	C: 3.4	D: x	E: 3.8	F: 0.726	G: 2.9
O=C(N(c1ccccc1)c1ccccc1)N(c1ccccc1)c1ccccc1
  A: -1.0	B: i	C: -1.7	D: -1.7	E: -3.0	F: 0.712	G: -3.5
CN(c1ccccc1C(=O)Nc1cccc(Cl)c1Cl)S(C)(=O)=O
  A: 1.6	B: x	C: -2.5	D: -3.0	E: -2.1	F: 0.65	G: -1.0
NS(=O)(=O)c1ccc(NC(=O)c2ccc(COc3ccccc3)o2)cc1
  A: -2.3	B: i	C: -2.3	D: -4.3	E: -1.2	F: 0.675	G: 0.8
C=C(C)C(=O)Nc1cccc(C2=NOC3(C2)C[C@@H](C(N)=O)N(C(=O)/C(C)=C/C)C3)c1 (stereo partly specified)
  A: -65.8	B: i	C: 3.8	D: -10.9	E: x	F: x	G: 0.4
Cc1noc(C)c1S(=O)(=O)Nc1ccc(C(=O)N2CCc3ccccc3C2)cc1
  A: 0.5	B: x	C: -1.3	D: -7.3	E: 7.0	F: 0.721	G: 2.0
CN(C)CCNC(=O)C(=O)C1C(=O)Nc2ccccc21 (stereo unspecified)
  A: x	B: i	C: -3.5	D: 36.9	E: x	F: 0.693	G: 2.8

# More entries follow:
# Abbreviations: A = HNF4A DNA FP; B = FGF22 binding; C = LANA-H2B inh; D = ALR inh; E = B2AR ag; F = Ecoli growth; G = UCH37 DUB inh
CCn1c(SCC(=O)N/N=C/c2ccccc2OCC(=O)O)nnc1-c1ccc(C)cc1
  A: -3.2	B: i	C: 0.0	D: -11.2	E: 5.0	F: x	G: x
Nc1ncccc1OCc1cccc(C(F)(F)F)c1
  A: -2.7	B: i	C: x	D: x	E: 1.8	F: 0.582	G: 1.0
CC1=CC(=C2N=C(c3ccccc3)OC2=O)C=C(C)O1
  A: -0.4	B: x	C: 8.0	D: 3.1	E: -3.0	F: 0.621	G: 0.9
CCCn1nnc(NC(=O)Cc2ccccc2)n1
  A: 2.4	B: x	C: -2.8	D: 1.6	E: -3.7	F: 0.724	G: -1.6
COc1cc(=O)[nH]c(=O)n1CC(=O)c1ccccc1
  A: -3.3	B: x	C: -7.3	D: 4.0	E: -13.5	F: 0.726	G: 3.6
NNC(=O)c1ccc(S(=O)(=O)N2CCc3ccccc32)cc1
  A: 1.1	B: i	C: 4.6	D: -6.2	E: 1.9	F: 0.642	G: 3.6
COc1ccc(OC)c(-c2nc(C(=O)NC3CCN(Cc4ccccc4)CC3)cc3c2[nH]c2ccccc23)c1
  A: 1.8	B: i	C: 7.7	D: -13.3	E: 3.3	F: 0.73	G: -13.3
O=C(CN(CCc1ccccc1)C(=O)c1csnn1)NCc1ccc(F)cc1
  A: -2.1	B: i	C: 1.6	D: 1.8	E: 16.7	F: 0.699	G: 1.2
CCCc1n[nH]c(=S)n1Cc1ccco1
  A: -4.2	B: i	C: 3.2	D: 46.7	E: -6.6	F: 0.688	G: -0.3
Nc1nc(Nc2cccc(F)c2)nc2ccccc12
  A: -1.4	B: x	C: -3.1	D: -3.9	E: -7.4	F: 0.466*	G: -36.6
O=C(NN1CCOCC1)c1cccc(Cl)c1
  A: -2.0	B: i	C: 2.2	D: -7.2	E: -1.3	F: 0.694	G: 0.0
FCCCOc1ccc(CN2CCN(c3ccccc3F)CC2)cc1
  A: 0.2	B: i	C: 0.7	D: -16.5	E: 0.5	F: 0.708	G: 1.1
COc1ccc2[nH]c3c(=O)n4c(nc3c2c1)SCC4
  A: -3.6	B: i	C: -4.7	D: -6.0	E: -6.0	F: 0.652	G: -263.1
FC(F)(F)c1cccc(NC(=S)NCC(c2cccnc2)N2CCOCC2)c1 (stereo unspecified)
  A: -6.2	B: i	C: -7.2	D: 57.0	E: 15.5	F: 0.661	G: 5.4
COc1ccc(S(=O)(=O)NCCCCNS(=O)(=O)c2ccc(OC)cc2)cc1
  A: 0.1	B: x	C: -1.4	D: -13.2	E: 7.0	F: 0.693	G: 1.7

# Some of the compounds tested (hit frequency here may not be typical).
